Screening results: PubChem, several laboratories
BJeLR viability = BJeLR cell viability loss; inhibition, % (test concentration not listed); actives 0.17% (n = 300,000); BJeLR (HRASV12) viability, CellTiter-Glo ATP luminescence, 48 h; reference of the scale not given here;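 active means replicate mean above 50%; inconclusive means above 50% but judged a plate artefact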;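 further: 50 nL library stock added to about 25 µL; numbers are from one replicate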
PrP 5UTR inh = inhibition of PrP 5' UTR reporter expression; cell-based PrP 5' UTR mRNA reporter, plate reader; inhibition, % (test concentration not listed); actives 0.35% (n = 340,000); AID 488862;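 active means every replicate at 50% or more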;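 further: 0 = median of the neutral control wells; tested in H4 reporter cells; numbers are from one replicate; inactives centre near -14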
Mtb hypoxia inh = inhibitors of hypoxia-regulated fluorescent reporter in Mycobacterium tuberculosis; M. tuberculosis hypoxia-regulated fluorescent reporter, fluorescence; AID 1159583; fluorescence inhibition, % (test concentration not listed); actives 0.1% (n = 300,000);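 active means 35 to 45% if threefold the growth effect, above 45% if 1.5-fold the growth effect; inactive means the rest, general growth blockers included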;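 further: wells of about 50 µL received 100 nL stock; 0% = vehicle wells and 100% = reference inhibitor wells; whole bacteria with a GFP reporter of the hypoxia response; strong numbers were not always called active; many hits fall short of the cut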
RN4220 kill = S. aureus RN4220 growth inhibition. OD600, 16 h. inhibition, % (test concentration not listed). actives 0.33% (n = 330,000);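 active means z-score of -3 or lower and OD600 up to 0.18 on both plates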;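 further: plate controls were untreated cells for no effect and reference antibiotic for full effect; stock transfer was 100 nL into about 80 µL; one replicate is shown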
Sa ugtP lethal = kills S. aureus RN4220 lacking UgtP | S. aureus RN4220 ugtP deletion, OD600 growth, 16 h; some inactives read as strong as hits | growth inhibition, % (concentration not given with the values) | actives 0.54% (n = 330,000);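 active means z-score under -3 and OD600 up to 0.15 on both plates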;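 further: plate controls were untreated wells for no effect and antibiotic for full effect; wells of about 80 µL received 100 nL stock; the first replicate is given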
Autofluor counter = counter-screen for toxin protease inhibitors: compound fluorescence; AID 624483; compound autofluorescence counterscreen, microsphere flow cytometry; stronger effect = higher value; fluorescence intensity (concentration not given with the values); actives 3.1% (n = 360,000);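 active means at least 3 SD above the mean of all compounds, about 16000 in these data; inconclusive means too few beads counted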;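 further: 100 nL of 1 mM stock went into each well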
Mtb hypoxia inh growth = further read-out of Mtb hypoxia inh, marked with its call; growth inhibition, %; measured here: M. tuberculosis growth (absorbance);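 0% = vehicle and 100% = reference antibiotic; read after six days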
* hit, by the source's call; u = inconclusive; x = no result given; & = joins results of further samples.

SMILES	BJeLR viability	PrP 5UTR inh	Mtb hypoxia inh	Mtb hypoxia inh growth	RN4220 kill	Sa ugtP lethal	Autofluor counter
CCN(C(=O)CN1C(=O)S/C(=C\c2cccc(OC)c2)C1=O)C1CCS(=O)(=O)C1 (stereo unspecified)	2	15	-10	6	-0.3	0	4775
CC(C)C1NC(C(=O)O)Cc2c1[nH]c1ccccc21 (stereo unspecified)	-3	-23	x	x	x	x	4405
O=C(NCCCN1CCOCC1)C1CC(=O)N(C2CCCCC2)C1 (stereo unspecified)	-9	-4	14	3	-12	-4	2408
CC1CCCC(C)N1CCNC(=O)C1CCN(S(=O)(=O)N2CCCCC2)CC1 (stereo unspecified)	0	-2	-2	4	-2.9	-4	9436
COc1cccc(/C=C2/SC(=S)N(CCCC(=O)Nc3ccc(O)cc3)C2=O)c1	24	10	15	10	3.9	8	4841
CCCCc1nc(SCC(=O)Nc2cc(C)on2)n[nH]1	-3	-9	-3	11	4.6	3	12890
COc1ccc(OC)c(NC(=O)c2ccccc2NS(=O)(=O)c2cccc3cccnc23)c1	-3	-6	0	5	8.8	21	3122
O=C(CCc1ccccc1)Nc1cc(C(=O)O)cc(C(=O)O)c1	9	-23	6	-7	2.7	1	2492
COc1ccc2nc(Nc3ccccc3)sc2c1	-5	-173	-3	-4	20	4	4158
Cc1ccc(C)c(OCC(=O)N(C)CC(=O)Nc2ccc(Cl)c(C(F)(F)F)c2)c1	x	-10	-2	-7	-10	-31	2733
CCOc1ccc(CC(C(=O)NN)C(=O)NN)cc1CN(C)C	-7	-10	-7	-11	-2.6	-3	7294
O=C(c1ccccc1)c1ccc2nc(N3CCCCC3)c3nncn3c2c1	0	-11	13	11	12	15	5167
O=C(CN1CCc2ccccc21)NCc1ccccc1Cl	-7	-12	5	-5	-2.3	4	2742
CC(C)c1ccc(CN2CCN(S(=O)(=O)c3ccc(Cl)s3)CC2)cc1	x	-8	6	5	-0.1	41	6259
CCn1c(SCC(=O)Nc2ccc3c(c2)oc2ccccc23)nnc1-c1ccc(N)cc1	4	-27	17	5	24	7	7102
COc1ccc2c(c1)cc1n2CCN=C1N	2	0	6	7	-0.1	-4	12557
O=c1onc(-c2ccccc2Cl)n1-c1ccccc1Cl	5	-25	10	15	8.7	-3	x
COC(=O)CCNC(=O)c1ccc2nc(Cc3ccc(OC)cc3)oc2c1	-15	-8	0	7	-2.4	9	3898
CC(C)c1ccc(NC(=O)Cc2c(C(=O)O)n(C)c3ccccc23)cc1	-10	-25	14	2	5.1	3	3475
C[C@@H](C(=O)NCc1ccccn1)[C@@H]1C[C@@]1(C)[C@@H](NC(=O)OCc1ccccc1)c1ccccc1	-9	-18	x	x	x	x	3220

Laid out differently: results already given.
CCOc1ccc(CC(C(=O)NN)C(=O)NN)cc1CN(C)C
- BJeLR viability = -7
- PrP 5UTR inh = -10
- Mtb hypoxia inh = -7
- Mtb hypoxia inh growth = -11
- RN4220 kill = -2.6
- Sa ugtP lethal = -3
- Autofluor counter = 7294

O=C(c1ccccc1)c1ccc2nc(N3CCCCC3)c3nncn3c2c1
- BJeLR viability = 0
- PrP 5UTR inh = -11
- Mtb hypoxia inh = 13
- Mtb hypoxia inh growth = 11
- RN4220 kill = 12
- Sa ugtP lethal = 15
- Autofluor counter = 5167

Continued:
SMILES	BJeLR viability	PrP 5UTR inh	Mtb hypoxia inh	Mtb hypoxia inh growth	RN4220 kill	Sa ugtP lethal	Autofluor counter
O=C(N/N=C/c1ccc[nH]1)c1cccnc1	4	-22	x	x	x	x	4227
Cc1nc2ccc(NS(=O)(=O)c3cccc([N+](=O)[O-])c3)cc2s1	x	-25	13	7	9.8	11	3457
O=C(COc1ccccc1-c1ccccc1)N/N=C/c1cccc2ccccc12	32	30	x	x	x	x	2457
O=S(=O)(c1ccccc1)c1nc(-c2ccccc2)oc1N1CCCCC1	6	-9	1	3	6.5	8	8231
C1CCN(c2nc3nonc3nc2NCC2CCOCC2)CC1	0	-18	3	-6	2.3	4	3488
CCOc1ccc2cc(S(=O)(=O)N3CCCCC3)ccc2c1	2	-20	23	36	-8.1	7	6024
Clc1ccc2nc(CSc3ccccc3)cn2c1	3	-1	5	12	3.6	6	1938
CCOc1ccc(C(=O)Nc2nnc(S(=O)(=O)N(C)Cc3ccco3)s2)cc1	4	2	x	x	x	x	4488
COc1ccccc1C(=O)OCC(=O)NC(=O)NC1CCCCC1	x	-12	7	7	3.3	1	5092
O=C(Nc1cc(S(=O)(=O)Nc2ccccc2Cl)ccc1O)c1cc2c(s1)CCCC2	2	-33	3	10	4.1	10	4219
CCOC(=O)c1cnc2c(C)c(C)ccc2c1Nc1ccc(S(=O)(=O)Nc2ncccn2)cc1	4	-1	1	10	14	1	2107
Cc1nc2ccc(NC(=O)COc3ccccc3)cc2s1	x	-26	6	10	9.0	14	3319
COc1ccccc1C(=O)N(Cc1ccc(Cl)cc1)C1CCS(=O)(=O)C1 (stereo unspecified)	-2	-17	2	5	0.2	6	5708
O=C(CN(c1cccc(Cl)c1)S(=O)(=O)c1ccc(Cl)cc1)N1CCc2ccccc2C1	5	-7	4	5	2.8	2	2256
CC(=O)c1cccc(NS(=O)(=O)N2CCOCC2)c1	0	-18	5	10	1.5	3	u
O=C(NCCc1c[nH]c2ccccc12)/C(=C\c1cccnc1)NC(=O)c1ccco1	-3	-10	-1	7	1.7	5	1933
COc1cc(NC(=O)CCNC(=O)Cn2ccc3ccccc3c2=O)cc(OC)c1OC	2	-32	-2	0	3.3	2	3439
CC(=O)O[C@H]1c2ccccc2-c2ccccc2[C@@H]1OC(C)=O	3	-30	15	11	5.0	10	3931
COc1ccc(-c2cc(C(=O)Nc3ccc(C)c(C)c3)no2)cc1	-1	-22	18	4	6.2	1	3936
O=C(Nc1cccnc1)c1coc(=O)c2ccccc12	2	-11	12	4	-0.8	-1	3808
O=C(O)c1cccc(NC(=S)NC(=O)c2ccc(-c3ccc(Cl)cc3)o2)c1	3	1	4	2	11	11	3511
Cc1noc(C)c1S(=O)(=O)N1CCCC(C(=O)NCc2ccccc2Cl)C1 (stereo unspecified)	6	-19	8	9	3.2	10	5225
COc1ccc(C(CNC(=O)COc2cc(C)ccc2Cl)N2CCCCC2)cc1 (stereo unspecified)	-1	-16	-1	7	3.4	2	5731
CCCCCn1c(C(Cc2ccccc2)NC(=O)COC)nc2ccccc21 (stereo unspecified)	-18	-9	4	12	-4.0	-19	5877
CS(=O)(=O)N1CCN(c2ccc([N+](=O)[O-])c(SCc3ccco3)c2)CC1	2	-28	19	4	4.5	2	4752
COc1ccc(-c2nc(NC(=O)c3ccc(OCC(=O)N4CCOCC4)c(OC)c3)sc2C)cc1	-3	10	13	3	4.7	-1	2517
COc1ccc(CSCC(=O)NCCC(C)C)cc1	28	-5	21	13	9.1	0	4338
CCOc1cc(C=NNC(=O)C(O)(c2ccccc2)c2ccccc2)ccc1OC(=O)c1ccco1	x	x	12	8	1.5	1	x
CCCC(=O)Nc1nnc(-c2ccc3c(c2)OCCO3)o1	1	-14	-5	5	4.6	-1	4468
Cc1nn(-c2ccccc2)c(C)c1NC(=O)COC(=O)c1cccc(OC(F)F)c1	3	-28	12	0	6.4	4	5741

Entries of single compounds as entered above. Screens in order: BJeLR viability, PrP 5UTR inh, Mtb hypoxia inh, Mtb hypoxia inh growth, RN4220 kill, Sa ugtP lethal, Autofluor counter
COc1ccc(C(CNC(=O)COc2cc(C)ccc2Cl)N2CCCCC2)cc1 (stereo unspecified) as listed: -1, -16, -1, 7, 3.4, 2, 5731
Cc1noc(C)c1S(=O)(=O)N1CCCC(C(=O)NCc2ccccc2Cl)C1 (stereo unspecified) as listed: 6, -19, 8, 9, 3.2, 10, 5225
O=C(O)c1cccc(NC(=S)NC(=O)c2ccc(-c3ccc(Cl)cc3)o2)c1 as listed: 3, 1, 4, 2, 11, 11, 3511
CCCCCn1c(C(Cc2ccccc2)NC(=O)COC)nc2ccccc21 (stereo unspecified) as listed: -18, -9, 4, 12, -4.0, -19, 5877
CS(=O)(=O)N1CCN(c2ccc([N+](=O)[O-])c(SCc3ccco3)c2)CC1 as listed: 2, -28, 19, 4, 4.5, 2, 4752

Remaining list, next part:
SMILES	BJeLR viability	PrP 5UTR inh	Mtb hypoxia inh	Mtb hypoxia inh growth	RN4220 kill	Sa ugtP lethal	Autofluor counter
O=C(O)c1ccc(S(=O)(=O)c2ccc(Sc3ccc(C(=O)O)c(C(=O)O)c3)cc2)cc1	-4	-11	6	5	5.6	7	2434
Cc1cc(C(F)(F)F)nn1CC(=O)NNC(=S)Nc1ccc(Cl)cc1	21	-19	7	-2	3.5	8	15958
CCN1C(=NCc2cc(OC)c(OC)c(OC)c2)NC(c2ccccc2)C(C(=O)OC)=C1C (stereo unspecified)	x	x	1	1	4.6	-3	x
CCC(=O)N1CCc2cc(S(=O)(=O)NC(Cc3ccccc3)C(=O)NC3CCCC3)ccc21 (stereo unspecified)	-1	-12	4	3	2.4	-1	9860
CCOc1ccccc1N1CC(C(=O)Nc2ccccc2N2CCCC2)CC1=O (stereo unspecified)	-1	-18	1	13	2.0	2	6150
CCN(CC)CCCn1c(=S)[nH]c2ccccc2c1=O	-9	-13	7	7	6.4	4	9148
Clc1cccc(OCCn2cncn2)c1Cl	x	-10	x	x	0.3	-2	4054
CC1(C)OC(c2ccccc2)=C/C(=C/C=C2C(=O)NC(=O)NC2=O)O1	-3	-24	5	4	0.6	-3	3557
CC1=C(C(=O)NCCCOC(C)C)C2(CCC(C)CC2)OC1=O (stereo unspecified)	1	-10	8	5	-7.8	-3	6815
COc1cc(/C(C)=N/Nc2ccc(C(=O)O)cc2)cc(OC)c1OC	6	-7	x	x	x	x	2323
Cn1c(CSCc2ccc(Cl)cc2)n[nH]c1=S	-4	-10	-1	11	8.7	0	3692
CCn1c(=S)sc2c(=O)n(CC(=O)Nc3cc(OC)ccc3OC)c(C)nc21	-1	-4	3	10	-2.4	2	5694
CCOC(=O)c1c(N2CCN(c3ccccc3)CC2)cc(C)nc1C	-5	-17	10	10	2.1	7	3145
CCc1nnc(NC(=O)CSc2nnnn2-c2cccc(C(C)=O)c2)s1	-4	-16	3	2	7.6	6	3083
CC(=O)c1cccc(N(CC(=O)NC2CCCCC2)C(=O)CCC(=O)Nc2nc(C)cs2)c1	1	-7	-4	-2	-0.6	13	3912
COc1cc2c(c(OC)c1OC)-c1c(cc3c(c1OC)OCO3)C1OC2C(C)C1C (stereo unspecified)	x	x	12	13	7.2	6	x
COc1cccc(OC)c1OCCCNC1CCCC1	3	3	-2	0	1.9	0	3421
Cc1cc(C)c2nc(N3CCC(C(=O)N4CCCC4)CC3)sc2c1	-4	-7	5	13	7.5	1	8365
COC(CC(O)CC(O)C(C)OCc1ccccc1)OC (stereo unspecified)	x	x	0&11&1&2&10&1	11&-2&5&2&10&7	-0.7&4.6&2.0&2.1&6.0&5.4	-2&10&-2&1&-3&8	x
COc1ccc(C=Nn2c(-c3n[nH]c4c3CCC4)n[nH]c2=S)c(OC)c1OC	x	x	11	7	3.6	1	x
NC(=O)NN=Cc1ccc(-n2nncc2-c2ccc(Cl)cc2)cc1	x	x	-8	-15	4.6	1	x
C=CCNC(=O)c1c[nH]c2ccc(S(=O)(=O)N(C)c3ccc(OCC)cc3)cc2c1=O	7	-5	-7	-7	4.2	-6	2969
CCOC(=O)C1=C(c2ccccc2)Nc2ncnn2C1c1ccc(O)cc1 (stereo unspecified)	-2	-23	11	-6	2.7	2	3692
CC1(C)Cc2c(sc3ncn4c(=S)[nH]nc4c23)CO1	6	-18	1	3	3.8	10	4377
Nc1c(C(=O)c2ccc(Cl)cc2)sc2nsc(SCCN3CCOCC3)c12	21	-1	9	14	1.8	3	7269
CC(OC(=O)c1ccco1)C(=O)Nc1nc(-c2ccccc2)cs1 (stereo unspecified)	x	-56	10	7	4.0	1	3879
CCCCn1c(=O)[nH]c(=O)c2c1nc(-c1ccc(-c3ccc(F)cc3)o1)n2C	-21	x	37*	8.8*	6.4	5	x
Cc1ccc(C(=O)Oc2ccccc2N2C(=O)C3CCCCC3C2=O)cc1 (stereo unspecified)	-2	-26	-9	3	1.0	23	8728
CC(=O)Nc1ccc(C=NNC(=O)c2cc(-c3ccco3)nc3ccccc23)cc1	x	x	18	3	3.6	9	x
COc1ccc(OC)c(C(=O)CC2OC(=O)c3ccccc32)c1 (stereo unspecified)	-2	-13	-5	3	1.0	-1	4190
O=C(O)/C(=C\c1ccco1)NC(=O)c1cccc2ccccc12	-1	3	5	-1	4.5	6	20299*
COc1cc(CSc2nnnn2-c2ccc(C)cc2)cc(OC)c1OC	7	-18	0	-1	2.0	1	5625
COc1cccc(CNC(=O)CC2Sc3ccccc3NC2=O)c1 (stereo unspecified)	-5	-25	-5	3	-0.3	1	4438
